gsp agonist = activates gsp, the McCune-Albright syndrome mutation. hit rate 0.13% among 340,000. Potency, µM (doses to about 76.9 µM), for inactives: at the highest dose activation (cAMP increase), most hits filed as activators. AID 624287. gsp mutant cells, cAMP HTRF, 30 min; control for the full effect not named in the record; active = well fitted activation curve with a large enough effect; inconclusive = small, poorly fitted or top-dose-only effect, or another doubt; inactive = no such curve, though single readings can be large or run the other way; cell line not stated here;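 also: phosphodiesterase inhibitor Ro 20-1724 added with compounds to block cAMP breakdown; potency is read from the fitted curve at half-maximal effect; nearly all actives have a fitted effect of over 60% in size; about a fifth of the inactives were tested at one dose only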
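Cells in DMEM/10% FBS with G418 were pretreated with compounds in DMSO plus […] (300 uM stock) for 30 min at 37C. cAMP was measured by HTRF (cAMP-d2 plus anti-cAMP antibody-K) after 30 min at room temperature.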
Sfp PPTase inh = inhibitors of Bacillus subtilis Sfp phosphopantetheinyl transferase; Q9F4F7; Biochemical Sfp PPTase activity, qHTS; Potency, µM, inactives show max response, negative = inhibition, actives largely listed as inhibitors; hit rate 3.5% among 310,000; AID 1490; active = well fitted inhibition curve with a large enough effect; inconclusive = small, poorly fitted or top-dose-only effect, or another doubt; inactive = no such curve, though single readings can be large or run the other way;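 also: the enzyme is Sfp with the accession as filed and its product quenches rhodamine fluorescence; potency is read from the fitted curve at half-maximal effect; 0% = enzyme reaction without inhibitor and -100% = no enzyme wells; top concentration of the series not given in the record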
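Compounds were incubated with enzyme (final 15 nM) for 15 min at room temperature before substrate addition started the reaction. Fluorescence at 525 nm excitation, 598 nm emission was recorded immediately and after 30 minutes.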
ClpP mod = qHTS Assay for Activators of ClpP; ATP-dependent Clp protease proteolytic subunit (Bacillus subtilis (strain 168)), P80244; purified B. subtilis ClpP, FRET peptide cleavage, 20 min; Potency, µM (series often up to 57.5 µM), for inactives: at the highest dose activity change, negative = active; hit rate 1.9% among 340,000; active = well fitted falling curve with a large enough effect; inconclusive = small, poorly fitted or top-dose-only effect; inactive = no such curve, though single readings can be large or run the other way; also: potency is read from the fitted curve at half-maximal effect; the source files actives as falling curves though it sought activators and does not explain the sign; nearly all actives have a fitted effect of over 65% in size; many hits overshoot -100%
Target sequence (P80244 whole entry, looked up): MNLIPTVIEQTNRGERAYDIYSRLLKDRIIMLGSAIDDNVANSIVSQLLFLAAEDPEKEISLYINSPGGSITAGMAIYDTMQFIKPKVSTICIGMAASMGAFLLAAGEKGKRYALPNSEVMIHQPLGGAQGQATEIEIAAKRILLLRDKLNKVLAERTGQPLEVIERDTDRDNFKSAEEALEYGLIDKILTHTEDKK
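ClpP 10 microg/mL final, pH 8 Tris/KCl buffer with BSA, glycerol, Tween-20; compound pinned in; FRET-FV substrate; RT 20 min; Ex320/Em430; ΔFRET vs ADEP 5.8 microM, DMSO, no enzyme.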
TRPV1 potentiator = enhances activation of the human vanilloid receptor TRPV1; TRPV1-expressing cells, Fluo-8 calcium influx, capsaicin EC20 potentiation; host cell line not named in the record; control for the full effect not named in the record; hit rate 0.02% among 320,000; AID 540277; Q8NER1; potentiation, % at 8.33 µM; active means potentiation above 80%; inconclusive means 30% to 80%; inactive means below 30%; also: 0% is about no effect
Target sequence (Q8NER1 whole entry, looked up): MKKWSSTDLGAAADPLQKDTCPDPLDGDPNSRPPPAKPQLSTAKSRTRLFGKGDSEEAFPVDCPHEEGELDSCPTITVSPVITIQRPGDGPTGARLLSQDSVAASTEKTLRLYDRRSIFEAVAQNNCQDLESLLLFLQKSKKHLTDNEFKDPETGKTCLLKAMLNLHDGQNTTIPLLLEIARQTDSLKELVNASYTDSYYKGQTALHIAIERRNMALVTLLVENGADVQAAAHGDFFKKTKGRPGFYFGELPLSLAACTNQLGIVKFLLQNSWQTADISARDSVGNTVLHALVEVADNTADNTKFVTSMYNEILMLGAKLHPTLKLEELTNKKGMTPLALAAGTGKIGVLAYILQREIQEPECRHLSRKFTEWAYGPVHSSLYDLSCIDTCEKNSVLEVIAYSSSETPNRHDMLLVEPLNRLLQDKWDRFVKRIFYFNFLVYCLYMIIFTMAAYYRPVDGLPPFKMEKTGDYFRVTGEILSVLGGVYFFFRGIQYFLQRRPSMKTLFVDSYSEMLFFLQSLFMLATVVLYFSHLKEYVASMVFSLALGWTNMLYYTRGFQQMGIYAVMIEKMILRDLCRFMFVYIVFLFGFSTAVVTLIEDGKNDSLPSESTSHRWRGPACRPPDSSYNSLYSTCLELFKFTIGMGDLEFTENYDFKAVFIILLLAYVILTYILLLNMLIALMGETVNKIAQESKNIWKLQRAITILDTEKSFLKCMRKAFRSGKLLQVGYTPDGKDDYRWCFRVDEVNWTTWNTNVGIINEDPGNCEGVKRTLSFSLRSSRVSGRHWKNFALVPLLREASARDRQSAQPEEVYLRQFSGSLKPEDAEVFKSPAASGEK
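Fluo-8 calcium influx in TRPV1-expressing cells, kinetic read (ex 480/em 520 nm). Compound added and read 3 min for agonist activity, followed by capsaicin at EC20 final and 2 min further read for enhancement.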
gsp antagonist = gsp mutant antagonism. gsp-mutant cells, cAMP HTRF, 30 min; control for the full effect not named in the record. Potency, µM (highest dose often 76.9 µM), for inactives: at the highest dose activity change, negative = inhibition, usual class: inhibitors. hit rate 0.4% among 340,000; active = falling curve of any shape with a large fitted effect; inconclusive = falling curve, mostly with a smaller effect; inactive = flat or rising curve; cell line not stated here;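 also: intracellular cAMP measured with PDE inhibitor Ro 20-1724 present during compound exposure; potency is read from the fitted curve at half-maximal effect; % is scaled to controls: 0 for no effect and ±100 for the full control effect; nearly all actives have a fitted effect of over 65% in size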
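G418-selected cells were plated in DMEM/10% FBS for 16-24 h at 37C, then treated with compounds plus the PDE inhibitor […] (300 uM solution added) for 30 min at 37C. Intracellular cAMP was measured by HTRF after 30 min lysis at room temperature.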
TRPML1 inh = blocks the human TRPML1 channel; TRPML1-inducible cells, Ca2+ dye fluorescence, FDSS; stronger effect = lower value; inhibition of EC80 agonist-evoked calcium signal; Q9GZU1; AID 624415; hit rate 0.02% among 390,000; activity change, negative = inhibition, % (no concentration beside the values); in the data active means activity change below about -50%; inconclusive means about -30% to -50%; inactive means above about -30%;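 also: stimulus is agonist 54-4 at its EC80 concentration; % is scaled to controls: 0 for no effect and ±100 for the full control effect; compound concentration not given in the record; the text of the record puts the active cut at -80%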
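Tet-induced TRPML1-DL cells loaded with Ca8 no-wash calcium dye were read kinetically on FDSS. Compound addition was followed by EC80 agonist 54-4 (4 uM final); inhibition was read over 110 s.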
Menin MLL FP FL = displaces fluorescein MLL peptide from human menin; 290,000 tested, under 10 active; Fluorescence polarization, fluorescein-MLL peptide displacement from menin; FP activity change, % at 61.4 µM; AID 1766; inconclusive = falling polarisation curve, or a change in total fluorescence; inactive = total fluorescence flat and polarisation flat or rising; no compound was filed as active; the % refers to the polarisation; negative = inhibition;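 also: % of control where 0% means no effect; inhibitors lower the polarisation; unlabelled MLL peptide was the positive control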
* = called active by the depositor; ? = inconclusive; · = no result given; & = joins results of further samples; [ ] = dose if it differs, or a comment.

SMILES	gsp agonist	Sfp PPTase inh	ClpP mod	TRPV1 potentiator	gsp antagonist	TRPML1 inh	Menin MLL FP FL
O=S(=O)(c1ccccc1)c1ccc(NCc2ccco2)cc1	7%	?	-5.2%	-18	5%	-10	4.3
O=C(CN1CCN(Cc2ccccc2)CC1)Nc1cccc(Br)c1	-31%[inhibitor]	10%	·	-1	-2%	11	0.4
CC1(C)Cc2nc3nc(SCC(=O)NCCc4ccccc4)n(-c4ccccc4)c(=O)c3cc2CO1	0%	-3%	?	3	?	-6	0.1
Cc1ccccc1OCC(=O)Nc1ccc(N2CCN(C)CC2)c(Cl)c1	-30%	3%	·	-7	14%	27	5.2
O=C(N/N=C/c1ccccc1Br)C1CC1	-18%	7%	1.0%	-2	0%	-10	-4.8
COCCNC(=O)c1n[nH]c2ccccc12	?	8%	?	21	7%	-2	-9.3
COc1ccc(-c2cc(C(=O)NC3CCCC3)no2)cc1	-57%[inhibitor]	15%	·	8	8%	-17	-1.1
COc1ccc(N2CCN(/C(=N\S(=O)(=O)c3ccccc3)Nc3nc(C)cc(C)n3)CC2)cc1	-4%	8%	-1.6%	-3	0%	-16	2.9
O=S(=O)(NCC1CCCO1)c1ccc(S(=O)(=O)N(Cc2ccc(F)cc2)Cc2ccco2)cc1 (stereo not given)	-43%[inhibitor]	-5%	0.8%	-4	4%	19	3.5
O=[N+]([O-])c1cc(-c2nc3nc4ccccc4nc3n2CCc2ccccc2)cc([N+](=O)[O-])c1	-1%[15.4 µM]	-25%	-1.7%	-3	35µM*	-10	3.8
COc1cccc2cc(C(=O)N3CCN(C/C=C/c4ccccc4)CC3)c(=O)oc12	-34%[inhibitor]	15%	-4.3%	5	-10%	-13	7.9
Cc1cccc(N2C(=NC(=O)c3ccccc3)SC3CS(=O)(=O)CC32)c1 (stereo not given)	-9%[15.4 µM]	-5%	-3.7%	1	?	2	·
O=C1C2C3C=CC(C3)C2C(=O)N1CC1CCCO1 (stereo not given)	11%	21%	2.1%	-29	7%	0	4.1
CCN1C(=O)C(CC(=O)Nc2ccc(OC)cc2)N(Cc2cccnc2)C1=S (stereo not given)	-3%	0%	-2.4%	2	-1%	5	-0.9
Cc1ccnc(NC(=O)c2oc3ccccc3c2C)c1	46%[15.4 µM]	·	·	-11	-12%	-5	·
Cc1cc(=O)oc2ccc(OCC(=O)O)cc12	?	9%	32µM*	0	14%	-16	1.0
Cn1cccc1C(=O)OCC(=O)Nc1ccc2c(c1)CCC2	-1%	14%	0.4%	-20	-4%	25	-1.9
Cc1cc(C)c(OCC(=O)OCC(=O)NC2CCC(C)CC2)c(C)c1 (stereo not given)	-52%[inhibitor]	·	-0.6%	8	13%	5	·
Cc1ccc(-c2nc(CS(=O)CC(=O)N3CCN(c4ccccc4)CC3)c(C)o2)cc1 (stereo not given)	-5%	0%	-1.4%	-6	-3%	2&-3	·
O=C(NCCCN1CCOCC1)NC12CC3CC(CC(C3)C1)C2	-1%	-9%	-0.3%	9	7%	5	1.7
Cc1nnc(SCC(=O)Nc2ncc3c(n2)CC(C)(C)CC3=O)s1	10%	19%	-0.1%	-21	-4%	5	3.2
CC(C(=O)N1CCc2ccccc21)n1cnc2c1c(=O)n(C)c(=O)n2C (stereo not given)	33%	·	0.7%	5	7%	-7	·
CCN(CCn1cccn1)Cc1ccccc1OCC(O)CN1CCc2ccccc2C1 (stereo not given)	-30%[inhibitor]	-4%	0.7%	3	1%	7	·
CNc1ncnc2c1cnn2C1CCCCO1 (stereo not given)	-3%[15.4 µM]	·	-0.2%	·	13%	4	·
Cc1[nH][nH]c(=O)c1C(c1ccc(Cl)cc1)c1c(C)[nH][nH]c1=O	-31%[inhibitor]	17%	·	-7	8%	-3	-3.7

Remaining list, next part.
SMILES	gsp agonist	Sfp PPTase inh	ClpP mod	TRPV1 potentiator	gsp antagonist	TRPML1 inh	Menin MLL FP FL
COc1ccc(C(=O)O/N=C(\C)c2ccccc2)cc1	?	-2%	-0.7%	-5	-24%	2	-0.5
N#C/C=C1\n2c(nc3ccccc32)OC12CCCCC2	-29%	4%	1.7%	14	-1%	-3	-0.8
COc1cc(C2C(C(C)=O)=C(O)C(=O)N2Cc2ccccc2)ccc1O (stereo not given)	?	11%	2.2%	-9	-14%	42	?
COc1ccc(OCC(=O)NNC(=O)CCc2ccccc2)cc1	15%	9%	·	6	3%	-1	-2.6
CS(=O)(=O)N(CC(=O)NCc1ccco1)c1ccccc1Cl	-16%	-10%	-0.1%	4	-10%	-8	-2.2
Cc1ccc(C)c(OCC(O)CN2C(C)CCCC2C)c1 (stereo not given)	-2%	-7%	-2.2%	-18	-1%	6	2.7
Cc1ccc(C(OCC(O)CNCc2ccc(F)cc2)c2ccccc2)cc1 (stereo not given)	?	?	-2.1%	7	-9%	-9	-17
Cc1ccc(S(=O)(=O)NC(=O)Nc2cc(C(C)(C)C)on2)cc1	-4%[15.4 µM]	7%	-4.5%	0	-11%	-10	0.4
CN(C)CCCN(C(=O)C1COc2ccccc2O1)c1nc2ccc(F)cc2s1 (stereo not given)	3%	-12%	1.1%	-12	2%	2	-1.8
Cc1cc(C)c(S(=O)(=O)c2ccccc2C)c(Cl)n1	0%	18%	0.6%	-1	-19%	13	0.5
Cc1cccc(NC(=O)C2CCN(C(=O)NCc3ccccc3)CC2)c1C	26%	15%	·	2	3%	-6	2.2
CCOC(=O)c1c(C)[nH]c(C)c1C(=O)CN1C(=O)NC(CC(C)C)C1=O (stereo not given)	0%	2%	-1.4%	?	10%	22	0.1
CC1(C)CC(=O)C=C(N2CCN(C3=CC(=O)CC(C)(C)C3)CC2)C1	·	-8%	·	-10	·	·	1.7
COc1cc(/C=C/C(=O)OCC(=O)N2CCCC2)ccc1OCC#N	-37%[inhibitor]	·	-13%	-5	7%	-1	·
O=[N+]([O-])c1ccc(COc2cccnc2)cc1	-2%[15.4 µM]	24%	-0.1%	-8	10%	23	-5.9
CCCS(=O)(=O)N1CCc2ccc(NC(=O)c3ccccc3Cl)cc2C1	-37%[inhibitor]	6%	·	-35	8%	-3	2.7
CCC(=O)N1CCc2cc(S(=O)(=O)CCC(=O)NCc3cccs3)ccc21	?	-7%	-1.4%	·	5%	7	3.0
CCCC1=NN2C(=N)/C(=C\c3cc(C)n(Cc4ccccc4)c3C)C(=O)N=C2S1	2%	-18%	2.5%	-9	-4%	14	1.4
c1ccc(CCc2ccncc2)cc1	-3%	9%	·	2	10%	-10	-1.0
CCOC(=O)N1CCN(C(=O)c2ccc3c(=O)n(Cc4ccc(Cl)cc4)c(=S)[nH]c3c2)CC1	-1%	4%	-0.7%	20	-25%	-15	5.5
Nc1nc(NCc2ccccc2)nc(Nc2cccc(F)c2)c1[N+](=O)[O-]	-64%[inhibitor]	6%	-1.6%	6	1%	7	6.7
C=CCn1c(-c2sccc2C)n[nH]c1=S	?	2%	-10%	-6	9%	-4	9.5
O=C(CCNC(=O)N1CC(=O)Nc2ccccc21)NCc1ccc(F)cc1	?	15%	0.0%	-2	5%	-3	·
Cc1cc(C)c2[nH]c3nc(SCC(=O)O)nnc3c2c1	6%	9%	0.4%	-2	13%	6	0.2
C=CCN1C(=O)C(O)(CC(=O)c2ccco2)c2cc(Br)ccc21 (stereo not given)	?	13%	-0.4%	3	10%	-14	0.6

New compounds follow:
SMILES	gsp agonist	Sfp PPTase inh	ClpP mod	TRPV1 potentiator	gsp antagonist	TRPML1 inh	Menin MLL FP FL
Cc1ccc(NC(=S)NCC2CCCO2)c(OC(F)F)c1 (stereo not given)	-9%	-7%	-2.0%	26	6%	15	0.7
O=C(O)c1ccc(Nc2ncnc3c2cnn3Cc2ccccc2)cc1	-8%[15.4 µM]	?	·	11	·	10	-0.3
CC(=O)Nc1ccc(/C(C)=N/NC(=O)c2ccc(CN3CCOCC3)cc2)cc1	0%[15.4 µM]	14%	·	3	-1%	19	2.3
O=C(CSc1nc2ccccc2c(=O)[nH]1)Nc1ccc(N2CCOCC2)cc1	11%[15.4 µM]	-3%	1.7%	2	5%	-1	15
CCc1ccc(NC(=O)C(CC)Sc2nc3cc4c(cc3c(=O)n2Cc2ccco2)OCO4)cc1 (stereo not given)	3%	45µM*	-2.3%	-8	3%	11	5.4
CC(C)OC(=O)CC1C(=O)NCCN1C(=S)NC(=O)CCc1ccccc1 (stereo not given)	6%	16%	-2.4%	-2	8%	0	-4.8
CCCCCCSc1ccc([C@@H]2[C@@H]3C(=O)N(CC)C(=O)[C@@H]3[C@]3(C(=O)OC)CCCCN23)cc1	?	·	0.0%	·	-9%	20	·
Oc1cccc(C=NCc2ccccc2)c1O	-18%	?	2.8%	13	-1%	-1	5.4
CC(C)OC(=O)/C(=C\c1ccc2c(c1)c1ccccc1n2C)NC(=O)c1ccccc1	10%	3%	-15%	·	-19%	22	6.0
COc1ccc(NC2=NCC(=O)N2c2ccccc2F)cc1	-34%	7%	-0.5%	9	9%	-14	4.7
Cc1nc(/N=C(\N)N(C)C)[nH]c(=O)c1C	-6%	13%	-1.5%	6	6%	-29	1.4
CSc1ccc(CNc2ncc(-c3cccc([N+](=O)[O-])c3)n2C)cc1	-14%	-12%	1.6%	-20	-16%	·	0.7
C[C@@H](C(=O)Nc1ccc2ccccc2c1)[C@@H]1C[C@@]1(C)[C@@H](N)c1ccccc1	·	0%	-0.5%	·	6%	2	0.2
CCOC(=O)Cc1nnc(NC(=O)COc2ccc(C)cc2)s1	23%	14%	-1.7%	10	1%	-12	-1.6
COc1ccccc1-c1nc2c(c(SCC(=O)N3CCCCC3)n1)Cc1c(CO)cnc(C)c1O2	?	16%	-1.5%	8	?	1	5.1

Some of the entries so far, as labelled records.
O=C(O)c1ccc(Nc2ncnc3c2cnn3Cc2ccccc2)cc1
  gsp agonist = -8%[15.4 µM] | Sfp PPTase inh = ? | ClpP mod = · | TRPV1 potentiator = 11 | gsp antagonist = · | TRPML1 inh = 10 | Menin MLL FP FL = -0.3

CC(=O)Nc1ccc(/C(C)=N/NC(=O)c2ccc(CN3CCOCC3)cc2)cc1
  gsp agonist = 0%[15.4 µM] | Sfp PPTase inh = 14% | ClpP mod = · | TRPV1 potentiator = 3 | gsp antagonist = -1% | TRPML1 inh = 19 | Menin MLL FP FL = 2.3
